# Screening data deposited in PubChem BioAssay by Johns Hopkins Ion Channel Center.
# KCNQ2 enhance – enhances the rat KCNQ2 potassium channel; B-score at 10 µM; CHO-K1 KCNQ2, FluxOR thallium flux fluorescence; active compounds read high; O88943; hit rate 0.54% among 310,000;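 active = fluorescence ratio B-score at least 3 SD of library B-scores, with initial fluorescence B-score within 3 SD, cut at about 5.3 in these data; same plate scores as AID 2156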;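 note: B-score of peak minus minimum over baseline fluorescence ratio after K+ and Tl+ stimulus; positive B-score means potentiation of KCNQ2 with more thallium influx and brighter signal; only the inactives scoring about 0 or higher are listed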
# Target sequence (O88943 whole entry, looked up): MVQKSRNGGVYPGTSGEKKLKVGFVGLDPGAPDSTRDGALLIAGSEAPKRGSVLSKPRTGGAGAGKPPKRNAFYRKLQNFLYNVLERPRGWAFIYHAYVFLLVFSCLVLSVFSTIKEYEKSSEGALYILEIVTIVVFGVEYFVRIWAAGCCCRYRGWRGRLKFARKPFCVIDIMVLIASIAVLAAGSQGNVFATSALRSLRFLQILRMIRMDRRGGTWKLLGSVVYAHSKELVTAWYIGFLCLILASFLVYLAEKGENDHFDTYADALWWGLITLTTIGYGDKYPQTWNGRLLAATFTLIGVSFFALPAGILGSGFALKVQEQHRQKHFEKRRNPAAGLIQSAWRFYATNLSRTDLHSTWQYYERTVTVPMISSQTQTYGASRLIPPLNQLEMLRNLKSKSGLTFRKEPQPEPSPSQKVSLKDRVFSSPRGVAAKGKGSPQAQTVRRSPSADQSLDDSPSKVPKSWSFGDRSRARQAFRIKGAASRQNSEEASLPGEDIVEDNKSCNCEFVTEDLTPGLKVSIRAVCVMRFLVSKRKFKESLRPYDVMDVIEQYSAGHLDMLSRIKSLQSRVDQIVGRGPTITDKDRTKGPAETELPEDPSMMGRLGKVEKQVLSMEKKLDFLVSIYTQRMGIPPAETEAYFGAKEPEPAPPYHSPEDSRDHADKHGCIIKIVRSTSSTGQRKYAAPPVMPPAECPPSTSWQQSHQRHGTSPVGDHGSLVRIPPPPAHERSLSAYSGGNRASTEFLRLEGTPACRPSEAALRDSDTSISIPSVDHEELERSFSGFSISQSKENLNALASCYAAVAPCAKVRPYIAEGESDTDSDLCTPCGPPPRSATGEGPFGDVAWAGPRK
# KCNQ2 enhance baseline – also measured in KCNQ2 enhance; calls as there; B-score; compound at 10 µM; measured here: initial fluorescence intensity artifact check;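 brightness before thallium and not channel activity; 0 = typical well and far values either way flag optical interference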
# Active calls of the source: *; nt = not tested or not shown.
# The line under a structure holds: KCNQ2 enhance, KCNQ2 enhance baseline
O=C(NCCCN1CCOCC1)c1ccc2c(=O)n(Cc3cccc(Br)c3)c(=S)[nH]c2c1
→ 0.49, -1.9
COc1ccc2[nH]cc(C(=O)CN3CCN(C(=O)c4ccco4)CC3)c2c1
→ 0.86, -0.23
Cc1ccc(N2C(=O)/C(=C/c3ccco3)SC2=S)cc1
→ 1.2, -0.06
CC(=O)N1CCN(C(=S)NC(=O)c2c(-c3ccccc3Cl)noc2C)CC1
→ 2.7, -2
COc1ccc(-n2cc(CN(C)Cc3n[nH]c(=O)[nH]3)c(-c3cccc(F)c3)n2)cc1
→ 0.3, 0.07
C(=C\c1ccccc1)/CN1CCN(Cc2ccc3c(c2)OCO3)CC1
→ 0.81, -0.65
COc1ccccc1N(C)S(=O)(=O)c1ccc(C(=O)OCC(=O)NCCC2=CCCCC2)cc1
→ 0.43, -1.4
Cc1ccccc1NC(=O)Nc1cnccn1
→ 0.02, 1.2
COc1cccc(-c2csc(N3CCN(CC(=O)Nc4ccc5c(c4)OCO5)CC3)n2)c1
→ 0.36, -2.1
O=C(C1CC(=O)N(c2ccccc2)C1)N1CCCCCC1 (configuration not stated)
→ 0.81, 1.1
O=C(Cc1ccsc1)NCC(=O)Nc1ccc(F)c(F)c1
→ 0.34, -0.61
FC(F)(F)c1nnc2ccc(N3CCCCC3)nn12
→ 1.3, 2.3
COc1ccc(-n2c(SCC(N)=O)nnc2-c2ccccc2F)cc1
→ 0.21, 0.09
Cc1ccc(N(CC(O)CN2CCCC2)S(=O)(=O)c2ccc(C)cc2)cc1 (configuration not stated)
→ 1.6, -3.6
CSc1ccccc1-n1nnnc1SCC(=O)Nc1ccccc1C
→ 0.44, -2.2
COc1ccc(NC(=O)Nc2cccc(C)n2)cc1
→ 2.1, 0.15
Oc1ccc(Br)cc1/C=N/n1c(-c2ccccc2)n[nH]c1=S
→ 2.6, -3
O=C(Cn1cnc2ccccc2c1=O)NCc1cccs1
→ 0.34, -0.64
CCN(CC(=O)Nc1c(F)cccc1F)C(=O)c1ccc(-c2ccccc2)cc1
→ 0.02, 0.69
CN1CCN(c2nc(-c3ccccn3)nc3ccccc23)CC1
→ 1.4, -3.1

# Some of the entries above, reformatted.
SMILES | KCNQ2 enhance | KCNQ2 enhance baseline
O=C(Cn1cnc2ccccc2c1=O)NCc1cccs1 | 0.34 | -0.64
COc1ccccc1N(C)S(=O)(=O)c1ccc(C(=O)OCC(=O)NCCC2=CCCCC2)cc1 | 0.43 | -1.4

# Full records from above:
# `O=C(C1CC(=O)N(c2ccccc2)C1)N1CCCCCC1` (configuration not stated) in the list: KCNQ2 enhance = 0.81; KCNQ2 enhance baseline = 1.1
# `C(=C\c1ccccc1)/CN1CCN(Cc2ccc3c(c2)OCO3)CC1` in the list: KCNQ2 enhance = 0.81; KCNQ2 enhance baseline = -0.65
# `FC(F)(F)c1nnc2ccc(N3CCCCC3)nn12` in the list: KCNQ2 enhance = 1.3; KCNQ2 enhance baseline = 2.3

# Continuation:
# The line under a structure holds: KCNQ2 enhance, KCNQ2 enhance baseline
CC1(C)CC[C@]2(C(=O)O)CC[C@]3(C)C(=CCC4[C@@]5(C)CC[C@H](O)C(C)(C)C5[C@H](O)C[C@]43C)[C@@H]2C1 (some centres not stated)
→ 2, -0.07
COc1cccc(C(=O)Nc2cccc(OCC(=O)O)c2)c1
→ 0.2, 0.57
COC(=O)c1c(NS(=O)(=O)c2ccccc2)csc1C
→ 0.67, 0
CC(=O)N1CCN(C(=S)NCc2ccccc2)CC1
→ 1.6, -0.67
Cc1cc(C)nc(N(C#N)CC(=O)Nc2ccccc2)n1
→ 0.17, -0.94
O=[N+]([O-])c1cc(C(F)(F)F)ccc1NCC1CCCO1 (configuration not stated)
→ 0.23, 0.67
Cc1cc(C)c(S(=O)(=O)N(CC(=O)O)C2CCCCC2)c(C)c1
→ 1.7, -0.55
Cc1ccc(S(=O)(=O)N(C)c2ccc(OC(=O)c3ccc(N4CCCC4=O)cc3)cc2)cc1
→ 0.62, 0.02
Cc1cnnc2c1-c1nonc1CC2
→ 0.09, -2.7
N#Cc1cc(-c2ccccc2)[nH]c1-c1nccc2ccccc12
→ 1.8, -0.77
O=C(Nc1ccc(S(=O)(=O)Nc2ncccn2)cc1)c1cccc(Br)c1
→ 0.26, 1.4
CC(=O)c1csc(COc2ccccc2)n1
→ 0.29, 1.1
Cc1nn(CC(=O)Nc2ccc(Cl)c(S(=O)(=O)N(C)C)c2)c(C)c1[N+](=O)[O-]
→ 0.58, 0.54
O=C(NCc1ccc(F)cc1)C(=O)NCC(c1ccco1)N1CCOCC1 (configuration not stated)
→ 1.6, -1.3
O=C(CC(=O)N/N=C/c1c(F)cccc1Cl)NCCc1ccccc1
→ 1.1, 0.76
Cc1ccc(NC(=O)COC(=O)CN2C(=O)C3CCCCC3C2=O)cc1S(=O)(=O)N1CCOCC1 (configuration not stated)
→ 0.01, 1.1
S=C(NCC(c1ccco1)N1CCCC1)Nc1ccccc1 (configuration not stated)
→ 0.05, -0.37
C=CCN1C(=O)c2ccccc2Sc2ccc(C(=O)NCC(OC)OC)cc21
→ 0.55, 0.25
CC(NC(=O)c1ccc2c(=O)n3c(nc2c1)CCC3)c1ccc(S(N)(=O)=O)cc1 (configuration not stated)
→ 0.24, -2.7
CC(=O)N1CCn2c3c(c(=O)c4cc(C)ccc42)CCC31 (configuration not stated)
→ 0.12, 0.01
O=C(OCCN1CCCCC1)c1ccc(O)cc1
→ 0.16, 1.1
Fc1ccc(SCCc2ccccn2)cc1
→ 0.76, nt
Cn1c(SCC(=O)c2ccc(O)c(O)c2)nnc1-c1cccs1
→ 0.05, -0.22
CCCCNC(=O)[C@H]1C[C@H]1[C@@H](O)[C@H](CO)NC(=O)[C@H](CC(C)C)NC(=O)OC(C)(C)C
→ 0.86, -2.8
C=CCN1C(=O)/C(=C/c2ccc(OCC(=O)O)cc2)S/C1=N/c1nccs1
→ 1.4, -1.6
CCOC(=O)C1C(=O)NC(N2CCOCC2)=NC1C(C)C (configuration not stated)
→ 1.4, 0.01
CCOc1ccccc1C(=O)Nc1nccs1
→ 0.32, -1
CC(=Nc1ccccc1C)C1=C(O)CSC1=O
→ 0.03, 1.2
Cc1csc(=O)n1CC(=O)OCC(=O)Nc1cc(Cl)ccc1[N+](=O)[O-]
→ 0.51, 0.95
CC(C)C(C)NC(=O)CN1C(=O)NC2(CCc3ccccc3C2)C1=O (configuration not stated)
→ 0.1, -0.48
COc1cc(-c2nnc(CSc3nnc(Nc4ccc(C(C)C)cc4)s3)o2)cc(OC)c1OC
→ 0.84, 0.14
COc1cccc(NC(=O)CSc2nnc3ccc(-c4ccncc4)nn23)c1
→ 0.68, 0.59
CCOc1ccc(/C=N/NC(=O)c2cc3c(OC)cc(OC)cc3[nH]2)cc1OC
→ 1.4, -0.4
COc1cc(/C=N/NS(=O)(=O)c2ccccc2)c(OC)c(OC)c1
→ 0.07, -1.5
O=C(COc1ccc2c(c1)OCO2)Nc1ccccc1C(F)(F)F
→ 0.29, 0.02
CC(NC(=O)CN1CCC(C(N)=O)CC1)c1ccccc1 (configuration not stated)
→ 2, 0.4
Cc1ccc(-n2nnc3c(=O)n(CC(N)=O)cnc32)cc1
→ 0.39, 1.1
Cc1cc(C(=O)C(=O)N(C)C)c(C)n1-c1ccc(Cl)c(Cl)c1
→ 0.84, -1.9
CCOc1cc(-c2noc(CCC(=O)Nc3cccnc3)n2)ccc1OC
→ 0.76, -2.4
COc1ccc(N2C(=O)CC(Sc3n[nH]c(-c4ccc(C)cc4)n3)C2=O)cc1 (configuration not stated)
→ 0.41, 2.3
C[C@@]12C(=O)N(c3cccc(Cl)c3)C(=O)N1[C@H](c1ccc(Cl)cc1)[C@@H]1C(=O)N(C3CCCCC3)C(=O)[C@@H]12
→ 1.3, -0.8
Cc1ccc(NC(=O)CN(C)S(=O)(=O)c2ccc3[nH]c(=O)oc3c2)c(C)c1
→ 0.39, 0.3
CCn1cc(-c2cc(C(F)(F)F)n3nc(C(=O)O)cc3n2)c(C)n1
→ 0.2, 0.15
COc1cc(NC(=S)N2CCC(C(O)(c3ccccc3)c3ccccc3)CC2)cc(OC)c1
→ 4.4, 1.5
Cc1nn(C(C)C(=O)NCCCc2ccccc2)c(=O)c2nn(-c3ccccc3)c(C)c12 (configuration not stated)
→ 0.55, 0.42
O=C(NCCNC1CCC(c2ccccc2)CC1)c1ccc(F)cc1 (configuration not stated)
→ 1.1, 2.5
CC(C)Nc1nc(Oc2ccc(Cl)cc2Cl)cc(C(F)(F)F)n1
→ 0.93, -0.13
CCOc1ccccc1N(CC(=O)NC1CCCCC1)C(=O)CNC(=O)c1ccco1
→ 0.33, 0.02
CCN(C(=O)c1cccs1)C1CCS(=O)(=O)C1 (configuration not stated)
→ 0.46, -0.06
NC(=O)C(c1ccc(Cl)cc1)c1ncc(C(F)(F)F)cc1Cl (configuration not stated)
→ 3.4, -0.92
COc1ccc(NC(=O)C2CCN(c3nc(C)cc(C)n3)CC2)cc1
→ 0.82, -1.5
CCCCNC(=S)Nc1cc([N+](=O)[O-])ccc1C
→ 0.27, -1.3
COc1cc(/C=C2/NC(=O)NC2=O)cc(Br)c1OCc1ccc(C(=O)O)cc1
→ 0.15, -1.3
O=[N+]([O-])c1cc(C(F)(F)F)ccc1N/N=C/c1cc2ccccc2nc1Cl
→ 0.08, 0.59
O=C(COC(=O)CSc1ccccc1)NNC(=O)c1ccc([N+](=O)[O-])cc1
→ 0.27, 0
O=C(COC(=O)/C=C/c1cccc(F)c1)Nc1ccccc1-c1ccccc1
→ 0.84, 0.36
CCOC(=O)c1c(CN2CCCCC2)n(C)c2cc(Br)c(OC)cc12
→ 0.07, 0.82
C=CCSc1nnc(NC(=O)c2nc(SCC)ncc2Cl)s1
→ 2.4, 1.7
Nc1nc(SCC(=O)NC2CCCCCC2)[nH]c(=O)c1-c1ccccc1
→ 1.7, -1.8
COc1ccc(C(=O)NC2CC2)cc1OC1CCN(C/C=C/c2ccccc2)CC1
→ 0.54, 1.4

# Additional compounds.
# The line under a structure holds: KCNQ2 enhance, KCNQ2 enhance baseline
CC(C)=NNc1nc(-c2ccc([N+](=O)[O-])cc2)cs1
→ 0.47, -1.4
CS(=O)(=O)N1N=C(c2ccccc2)CC1c1ccc2c(c1)OCO2 (configuration not stated)
→ 1.3, -0.6
O=C1Nc2ccccc2N(O)N1c1ccc(S(=O)(=O)N2CCCCCC2)cc1
→ 0.02, -0.47
CCCCC(NC(=O)Cc1c(C)c2cc3c4c(oc3cc2oc1=O)CCCC4)C(=O)O (configuration not stated)
→ 0.98, -1.1
Cc1ccc(NC(=O)C2C3CCCC2C3c2ccccc2)cc1 (configuration not stated)
→ 0.91, -0.58
CCc1nc2cc(C)nn2c2nc3ccccc3n12
→ 0.06, -0.46
CN(C)C(=O)C(NC(=O)c1ccccc1)=C(Cl)Cl
→ 0.03, -0.93
O=C(CCc1nc2ccccc2c(=O)[nH]1)NCc1ccccn1
→ 0.76, -1.1
COc1ccc2nc3ccccc3nc2c1N
→ 0.08, 0.26
Cc1ccn(CC(=O)N2CCCC(N3CCN(c4ccc(F)cc4)CC3)C2)n1 (configuration not stated)
→ 0.5, -1.5
CCOC(=O)N1CCN(C(=O)CN(C)S(=O)(=O)c2ccc(Cl)cc2)CC1
→ 0.2, -2.6
CCCn1c(=S)[nH]c2ccccc2c1=O
→ 1.2, -0.07
N#CCC(=O)N1CC2(CC(c3cccc(NC(=O)COc4ccc(Cl)cc4)c3)=NO2)C[C@@H]1C(N)=O (some centres not stated)
→ 0.17, 1.9
Cc1ccc(OCC(=O)Nc2ccc(S(=O)(=O)N3CCCCC3)cc2)c([N+](=O)[O-])n1
→ 1.3, 0.39
CCOC(=O)c1cccc(NC(=O)Cn2cnc3c2c(=O)n(C)c(=O)n3C)c1
→ 1.8, -0.65
c1ccc(-n2cc(CN3CCC(N4CCOCC4)CC3)c(-c3ccc4c(c3)OCO4)n2)cc1
→ 1.2, 0.83
COc1ccc(/C(N)=N/OC(=O)c2cc(-c3ccccc3)nc3ccccc23)cc1
→ 0.34, -1.5
O=C(CSc1nnc(COc2ccccc2)n1Cc1ccco1)NCc1ccco1
→ 1.2, -2.1
O=C(CN1CCN(S(=O)(=O)c2ccc(Cl)cc2)CC1)NC1CCCC1
→ 0.54, 1.4
COc1ccc(-c2ncn(CCC#N)c2[N+](=O)[O-])cc1
→ 0.74, 0.2
CCn1nc(C)cc1C(=O)n1nc(C)c(Sc2ncccn2)c1C
→ 1.7, 1.1
COc1ccc(-c2nnc(SC(C(=O)c3c[nH]c4ccccc34)c3ccccc3)n2N)cc1OC (configuration not stated)
→ 0.13, 0.92
Cc1cccc(OCCSc2ncnc3nc[nH]c23)c1
→ 1.1, -1.1
CN1CCCC(OC(=O)c2ccccc2Br)C1 (configuration not stated)
→ 0.08, 1.4
CCN(C(=O)CSc1nnc(-c2cccs2)n1N)c1c(N)n(Cc2ccccc2)c(=O)[nH]c1=O
→ 0.12, 1.1
C=CCNC(=O)CN1CCN(C(c2ccccc2)c2ccccc2)CC1
→ 0.45, 0.74
COc1ccc(CN2CCNC(=O)C2CC(=O)NCCCC2CCCC2)c(C)c1C (configuration not stated)
→ 1.7, 0.03
CC(=O)N(C)c1ccc(NC(=O)c2ccccc2C(=O)O)cc1
→ 0.19, 2.8
CC1CC(C)CN(CCCNC(=O)Cn2ncn3cccc3c2=O)C1 (configuration not stated)
→ 0.61, 1.1
CCn1c(=O)c([N+](=O)[O-])c(NCCc2ccc(OC)c(OC)c2)c2ccccc21
→ 2.6, -0.39
CCNC(=S)NNC(=O)c1cc(C)nc2ccccc12
→ 0.89, -1.9
Cn1c(=O)c2c(nc(Sc3ncccn3)n2Cc2ccc(Cl)cc2)n(C)c1=O
→ 0.74, -0.01
O=C(CO/N=C\c1ccccc1)Nc1ccccc1C(=O)N1CCOCC1
→ 0.05, -0.6
COc1ccc(NC(=S)N2CCN(C(c3ccccc3)c3ccccc3)CC2)cc1OC
→ 1.1, 1.4

# Some of the compounds tested (hit frequency here may not be typical).
